Screens as filed in PubChem.
FGF22 binding: binders of recombinant human FGF22 by thermal shift; Q9HCT0; SYPRO orange fluorescence; percent of sucrose octasulfate shift, DMSO zero; calls only at 9.99 µM; 1.5% of 340,000 active; AID 651658;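 active = melting point raised past a set limit in the mean and every replicate; three in four hits are not shown here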
Ecoli growth: blocks Escherichia coli growth; OD600, 23 h; hits give low values; OD600 absorbance (test concentration not listed); 0.21% of 330,000 active;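 active = OD600 absorbance below the run mean of sample wells minus 3.6 SD, in any replicate, cut at about 0.56 in these data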;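 note: stock transfer was 300 nL into about 60 µL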
HNF4A DNA FP: change in binding of human HNF4 alpha to DNA. P41235. HNF4a-FITC DNA binding, fluorescence polarization, 1 h. activity change, % at 10 µM. 0.3% of 360,000 active. AID 1224865; in the data active = activity change above about 30%, passing the limit was not always enough;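 note: controls were the assay level and a saturating level of protein; the project sought stronger binding though the title names inhibitors; some compounds called inactive have numbers as strong as hits; positive values seem to mean higher polarization but the record does not say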
Target sequence (P41235 whole entry, looked up): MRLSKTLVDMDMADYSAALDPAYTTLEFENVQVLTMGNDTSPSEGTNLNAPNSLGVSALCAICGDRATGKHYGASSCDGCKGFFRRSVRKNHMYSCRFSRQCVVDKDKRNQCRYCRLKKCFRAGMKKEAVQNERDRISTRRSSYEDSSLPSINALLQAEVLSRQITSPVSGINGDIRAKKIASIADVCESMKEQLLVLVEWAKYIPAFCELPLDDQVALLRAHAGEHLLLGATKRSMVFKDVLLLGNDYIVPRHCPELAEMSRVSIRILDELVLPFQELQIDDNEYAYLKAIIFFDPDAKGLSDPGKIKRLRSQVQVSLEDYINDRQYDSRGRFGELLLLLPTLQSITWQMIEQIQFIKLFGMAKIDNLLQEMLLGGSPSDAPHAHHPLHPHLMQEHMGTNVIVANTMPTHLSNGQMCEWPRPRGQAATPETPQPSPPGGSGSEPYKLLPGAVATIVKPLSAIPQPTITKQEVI
rRNA inh HTS: inhibits bacterial ribosomal RNA function over humanized ribosomes; GFP signal change (wild-type ribosome), % (concentration not given with the values); E. coli WT GFP vs humanized-ribosome RFP mutants, fluorescence, 24 h; hits give low values; DMSO median 0, no signal -100; AID 720706; 1.6% of 350,000 active;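 active = significant combined selectivity score with lowered wild-type GFP, culture density cut under 30%, mutant RFP and density less affected; inactive = any of these conditions unmet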; note: one replicate is shown; some compounds called inactive have numbers as strong as hits
UCH37 DUB inh: human UCH37 deubiquitinating enzyme inhibition | Q9Y5K5 | inhibition, % (concentration not given with the values) | 0.33% of 330,000 active | purified proteasome/UCH37, Ub-AMC cleavage fluorescence;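 active = mean of two replicates above 20%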;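 note: 0% = compound-free wells with enzyme and 100% = wells lacking proteasome; stock transfer was 100 nL into about 20 µL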
Target sequence (Q9Y5K5 whole entry, looked up): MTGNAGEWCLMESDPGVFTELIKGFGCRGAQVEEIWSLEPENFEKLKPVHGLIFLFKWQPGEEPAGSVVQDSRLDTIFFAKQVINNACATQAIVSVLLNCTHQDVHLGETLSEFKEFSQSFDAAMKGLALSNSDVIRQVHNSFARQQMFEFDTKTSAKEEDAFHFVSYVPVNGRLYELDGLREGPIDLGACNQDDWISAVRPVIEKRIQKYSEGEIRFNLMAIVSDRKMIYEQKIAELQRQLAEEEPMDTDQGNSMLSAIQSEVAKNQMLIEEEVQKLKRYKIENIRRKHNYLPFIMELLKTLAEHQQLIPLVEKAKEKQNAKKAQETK
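Material: Human UCH37 enzyme supplied as purified proteasome complex | Schedule: 30 min compound-proteasome preincubation then 25 min substrate reaction, room temperature | Detection: AMC fluorescence from Ub-AMC cleavage, excitation 355 nm, emission 460 nm | Benchmarks: Wells without proteasome as full block, compound-free enzyme plus substrate as uninhibited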
ALR H2O2 inh: blocks human ALR sulfhydryl oxidase activity | 3.8% of 290,000 active | inhibition, % (test concentration not listed) | purified ALR, DTT oxidation, H2O2 HRP-luminol luminescence;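 active = mean and each replicate at 75% or more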;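 note: stock transfer was 7.5 nL into about 7.5 µL; 0% = neutral wells and 100% = wells with inactivated enzyme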
Target sequence (P55789 whole entry, looked up): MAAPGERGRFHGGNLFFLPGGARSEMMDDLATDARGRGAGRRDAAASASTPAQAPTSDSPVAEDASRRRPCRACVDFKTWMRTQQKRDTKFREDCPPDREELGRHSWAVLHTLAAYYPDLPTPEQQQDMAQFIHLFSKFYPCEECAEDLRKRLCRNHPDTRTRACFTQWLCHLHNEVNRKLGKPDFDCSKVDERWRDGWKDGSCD
Beta2AR agonist: activates human beta-2 adrenergic receptor causing internalization. 0.43% of 340,000 active. Am2.2-beta2AR cells, FAP receptor internalization, flow cytometry; reference of the scale not given here. response, % (test concentration not listed);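 active = response above a set limit, near 3 SD of response in nonfluorescent compounds, cut at about 42% in these data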;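 note: stock transfer was 100 nL into about 11 µL; a reference agonist was the positive control; negative values mostly stem from fluorescent compounds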
rRNA inh HTS OD600: second read-out of rRNA inh HTS, no call of its own (marks repeat the call); OD600 change, %; measured here: OD600 growth;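 optical density of the mix in the first replicate; 0 = DMSO median and -100 = no signal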
rRNA inh HTS RFP: recorded beside rRNA inh HTS, whose call it bears; RFP signal change, %; measured here: RFP humanized mutant strains;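 first replicate; 0 = DMSO median and -100 = no signal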
The depositor's hits bear a star; i = inactive; . = no result given; & = joins results of further samples.

SMILES | FGF22 binding | Ecoli growth | HNF4A DNA FP | rRNA inh HTS | rRNA inh HTS OD600 | rRNA inh HTS RFP | UCH37 DUB inh | ALR H2O2 inh | Beta2AR agonist
Cc1ccc(CNC(=O)C2CC(c3ccccc3F)=NO2)cc1 (stereo unspecified) | i | 0.633 | 4.4 | 2.5 | -4.4 | -1.0 | 0.1 | -1.5 | 1.6
O=C(CSc1nnc2ccc(-c3ccccc3)nn12)NCC1CCCO1 (stereo unspecified) | . | 0.731 | 0.0 | 11.0 | 13.6 | -0.7 | -23.9 | -0.5 | 4.5
CCOc1ccccc1CN1CCC(N2CCC(C(=O)NC3CC3)CC2)CC1 | i | 0.698 | -2.2 | 12.7 | -5.6 | -2.7 | 0.3 | -3.1 | 1.7
COc1ccccc1CNC(=O)CCC(=O)N1Cc2cccc(OC)c2Oc2ncccc21 | i | 0.72 | -0.1 | 5.2 | -1.5 | 0.3 | 5.4 | -16.0 | 5.3
Cc1cc(C)c(C#N)c(SCC(=O)N(CC(C)C)C2CCS(=O)(=O)C2)n1 (stereo unspecified) | i | 0.675 | 3.0 | 7.4 | 2.2 | 3.8 | -0.4 | . | -2.1
C=CCOn1c(=O)c(-c2ccccc2)[n+]([O-])c2ccccc21 | . | 0.704 | 1.1 | 3.1 | 1.6 | -0.3 | -11.3 | -0.5 | 4.5
COC(=O)C[C@H]1CC[C@H](NC(=O)Nc2ccccc2)[C@@H](CO)O1 | . | . | 3.0 | 7.5 | 9.8 | 2.7 | . | . | .
Cc1cc(C)nc(Sc2nc(Cl)nc(N(c3ccccc3)c3ccccc3)n2)n1 | . | . | 0.6 | . | . | . | . | 54.1 | 10.9
CCOC(=O)C1=C2SCCN2C(=O)C(C#N)C1(C)C (stereo unspecified) | . | 0.691 | -1.4 | . | . | . | -0.6 | 35.2 | -6.4
CCOC(=O)C1CN(S(C)(=O)=O)c2cc(CC(=O)OC)ccc2O1 (stereo unspecified) | i | 0.702 | -2.2 | 10.1 | 3.8 | 4.5 | -0.7 | -2.2 | -0.7
O=C(NOCc1ccccc1)c1coc(-c2ccccc2)n1 | i | 0.635 | 0.5 | -26.4* | -7.8* | -0.2* | 1.8 | . | 13.6
O=C(/C=C/c1ccccc1Cl)NCc1cccs1 | . | 0.665 | 1.8 | . | . | . | 2.7 | 1.5 | -1.0
COc1ccc(CNC(=O)CN2CCN(S(=O)(=O)c3ccccc3)CC2)cc1 | i | 0.69 | 4.5 | -0.4 | -7.7 | 0.9 | -4.2 | -2.2 | -1.7
COc1ccc(CC(=O)NNC(=S)Nc2ccc(Br)cc2)cc1 | . | 0.673 | -0.9 | . | . | . | 3.3 | 40.2 | 3.3
O=C(CS(=O)(=O)c1cn(CC(=O)N2CCCC2)c2ccccc12)Nc1ccccc1F | i | 0.728 | 5.8 | 7.0 | 4.3 | 5.2 | 1.5 | -16.3 | -4.9
O=C(Nc1ccc(F)cc1)C1C(c2ccccc2)C1(Cl)Cl (stereo unspecified) | . | 0.617 | 2.2 | . | . | . | 1.9 | -2.4 | 4.5
CSc1n[nH]c2nc3c(c(=O)n12)C1(CCCC1)Cc1ccccc1-3 | i | 0.75 | 0.9 | -3.5 | 0.4 | 4.4 | -15.9 | 5.3 | -7.2
COC(=O)CN1C(c2cccc(Cl)c2)=Nc2ccc(Cl)cc2C1c1ccccc1 (stereo unspecified) | i | 0.713 | -0.2 | . | . | . | 1.9 | -14.3 | -1.6
COc1ccc(-n2c(-c3cccc(OC)c3)nc(=S)c3c2CCCC3)cc1 | i | 0.753 | 2.7 | 1.7 | -4.3 | -0.4 | 9.1 | -1.2 | 9.5
CCN(c1cccc(C)c1)S(=O)(=O)c1nnc(NC(=O)c2ccco2)s1 | i | 0.708 | 0.1 | -11.5 | -15.0 | 1.1 | 2.7 | 25.9 | 4.4
O=C(NCc1cccs1)c1ccc(CS(=O)Cc2ccc(Cl)cc2)o1 (stereo unspecified) | i | . | 2.3 | -8.9 | -24.5 | 4.4 | . | . | .
CCC(=O)N1CCC1(C)C(=O)Nc1ccc(Cl)c(Cl)c1 (stereo unspecified) | i | . | -0.6 | -15.3 | -30.1 | -10.8 | . | . | .
CN(C)c1ccc(-c2ccnc3c2CC(C)(C(=O)Nc2cccc(OC(F)(F)F)c2)O3)cc1 (stereo unspecified) | i | . | -4.7 | 12.8 | 20.2 | 0.8 | . | . | .
CCN(CC)CC#CC(C)(C)OC(C)=O | . | 0.665 | 0.8 | . | . | . | 2.0 | 1.5 | -5.8
CCC(c1nnnn1C1CCCC1)N1CCN(Cc2ccccc2)CC1 (stereo unspecified) | . | 0.692 | -1.0 | . | . | . | 1.5 | 0.8 | 4.5
COC(=O)C1=C(C)NC(=O)CC1c1ccc(C(=O)OC)cc1 (stereo unspecified) | . | 0.696 | 2.5 | . | . | . | -1.3 | -1.0 | 8.0
CC1=C(C(=O)N(C(C)C)C(C)C)CC(CC(=O)NCc2cccc3ccccc23)C(=O)N1Cc1ccc(F)cc1 (stereo unspecified) | i | . | -1.6 | -13.7 | -13.7 | -0.9 | . | . | .
Cc1ccc(N(CC(=O)O)S(C)(=O)=O)cc1Cl | . | 0.662 | 3.0 | . | . | . | 0.1 | 25.9 | 5.6
CC(C)C(NS(=O)(=O)c1ccc2c(c1)Cc1cc(S(=O)(=O)NC(C(=O)O)C(C)C)ccc1-2)C(=O)O (stereo unspecified) | i | 0.629 | -1.2 | 3.7 | 7.5 | 1.7 | 4.0 | -1.4 | 8.4
COc1ccc(/C(N)=N/OC(=O)Cc2ccccc2[N+](=O)[O-])cc1 | . | 0.713 | -1.0 | . | . | . | 0.9 | 0.4 | 4.1
Cn1c(NCC(O)c2ccccc2)nc2c1c(=O)n(Cc1ccc(Cl)cc1)c(=O)n2C (stereo unspecified) | . | 0.748 | 1.4 | . | . | . | 4.8 | -9.2 | 4.9
COc1ccccc1NS(=O)(=O)c1cccc(C(=O)NCc2ccco2)c1 | . | 0.694 | 0.5 | 1.7 | -1.9 | 5.9 | 4.0 | 2.9 | 3.1
O=C(COC(=O)c1ccc[nH]c1=O)NC1CC1 | i | 0.666 | 3.1 | 4.9 | 7.9 | -0.1 | 0.5 | -5.3 | -3.0
CCC(NS(=O)(=O)c1cn(C)nc1C)c1ccccc1 (stereo unspecified) | i | 0.66 | -1.1 | 5.7 | 5.0 | -2.3 | 3.7 | -2.8 | -9.9
CCCCCCCC(=O)NNC(=O)CCC(=O)O | . | 0.723 | -2.2 | . | . | . | 2.1 | -24.6 | 3.2
CC(C)CC1NC(=O)c2cccnc2-n2c1nc1cc(F)ccc1c2=O (stereo unspecified) | i | . | 0.2 | -2.1 | -2.1 | -1.5 | . | . | .
COc1ccc(Cl)cc1NC(=O)CSc1nnc(-c2ccncc2)n1CC1CCCO1 (stereo unspecified) | . | 0.714 | -3.4 | . | . | . | 3.9 | -13.0 | -5.4
CC(=O)c1ccc(OCC(=O)N(CCC2=CCCCC2)c2c(N)n(Cc3ccccc3)c(=O)[nH]c2=O)cc1 | i | 0.689 | 4.5 | 2.5 | 1.5 | 0.4 | 1.8 | 0.8 | 0.0
CNC(=O)c1[nH]cnc1C(=O)N[C@@H](C)C(=O)OC(C)(C)C | i | . | -6.5 | 16.1 | 11.3 | 27.9 | 1.0 | 7.4 | 2.6
COc1ccc(-n2nc(C(=O)NCC(=O)N3CCN(c4ccccn4)CC3)c3ccccc3c2=O)c(OC)c1 | i | 0.667 | -1.2 | 3.3 | 2.3 | -4.9 | 3.4 | -7.0 | -0.3

Some values from the results shown.
CSc1n[nH]c2nc3c(c(=O)n12)C1(CCCC1)Cc1ccccc1-3 in rRNA inh HTS OD600 → 0.4
O=C(/C=C/c1ccccc1Cl)NCc1cccs1 in Beta2AR agonist → -1.0
Cc1cc(C)nc(Sc2nc(Cl)nc(N(c3ccccc3)c3ccccc3)n2)n1 in HNF4A DNA FP → 0.6
Cc1ccc(CNC(=O)C2CC(c3ccccc3F)=NO2)cc1 (stereo unspecified) in rRNA inh HTS → 2.5
O=C(CS(=O)(=O)c1cn(CC(=O)N2CCCC2)c2ccccc12)Nc1ccccc1F in HNF4A DNA FP → 5.8
CCOC(=O)C1=C2SCCN2C(=O)C(C#N)C1(C)C (stereo unspecified) in Beta2AR agonist → -6.4
COc1ccc(CNC(=O)CN2CCN(S(=O)(=O)c3ccccc3)CC2)cc1 in rRNA inh HTS → -0.4

Continuation:
SMILES | FGF22 binding | Ecoli growth | HNF4A DNA FP | rRNA inh HTS | rRNA inh HTS OD600 | rRNA inh HTS RFP | UCH37 DUB inh | ALR H2O2 inh | Beta2AR agonist
COc1ccc(N(CN2C(=O)C3CCCCC3C2=O)C(=O)c2ccco2)cc1 (stereo unspecified) | i | 0.672 | 1.4 | 3.6 | 6.9 | 2.8 | -1.0 | -12.1 | 0.4
O=C(CSc1ccccc1)NCCCc1ccccc1 | i | 0.728 | 2.5 | -23.1* | -13.3* | -0.3* | 2.0 | -7.8 | -0.7
Cc1noc(C)c1C(=O)OC(C)C(=O)N(C)c1ccccc1 (stereo unspecified) | i | 0.705 | -0.7 | 2.8 | 6.9 | -1.4 | -1.6 | . | -1.9
CC1(c2nnc(Cc3ccccc3)o2)CC(c2cccnc2)=NO1 (stereo unspecified) | i | 0.698 | 9.4 | 22.0 | 19.1 | 5.1 | 3.8 | . | -6.4
Cc1ccccc1-c1ccc2c(c1)O[C@H](CN(C)C(=O)C1CC1)[C@@H](C)CN([C@@H](C)CO)S2(=O)=O | i | . | -0.7 | -2.2&-8.4 | -30.8&-24.9 | 4.7&4.5 | . | . | .
Cc1cc(C)cc(NC(=O)CSc2nnc(C3CC3)n2CC2CCCO2)c1 (stereo unspecified) | i | 0.657 | -1.3 | 4.2 | 4.5 | -2.1 | 1.4 | . | -3.2
CCc1nn(CC(=O)O)c(=O)c2ccccc12 | i | 0.687 | 0.8 | 13.2 | 14.2 | -3.5 | 4.1 | -4.1 | 0.8
CC(C)Cc1ccc(C(=O)NCc2ccc3c(c2)OCO3)o1 | i | 0.685 | -0.2 | -18.2 | -27.1 | -2.5 | 3.8 | 24.0 | -3.3
CC1CC(=O)N(CC(=O)Nc2cccc(Cl)c2)c2ccccc2S1(=O)=O (stereo unspecified) | i | . | -1.0 | -4.9 | -6.8 | 5.5 | . | -0.4 | 0.7
CCn1c(=O)cc(SCC(=O)NCCN2CCN(Cc3ccccc3)CC2)c2ccccc21 | . | 0.671 | -0.4 | . | . | . | 1.0 | -4.8 | -7.4
Cc1ccc(OCC(=O)N/N=C/c2ccc3c(c2)OCO3)cc1C | i | . | -3.5 | 11.5 | 23.5 | 1.4 | . | . | 0.6
N#Cc1ccc(OS(=O)(=O)c2ccc(-c3ccon3)s2)cc1 | i | 0.633 | 1.0 | -34.6 | -33.0 | -7.7 | 5.1 | -6.8 | 2.7
CC(=O)Nc1ccc(S(=O)(=O)N2CC3(C)CC2CC(C)(C)C3)cc1 (stereo unspecified) | i | 0.683 | -0.5 | -8.4 | -16.4 | -3.0 | 2.5 | -2.7 | 3.4
C=CCOC(=O)C(C(=O)Cc1ccccc1)c1ccccc1 (stereo unspecified) | i | 0.672 | 7.0 | -2.0 | -41.5 | -11.1 | 4.8 | . | 6.3

An excerpt of these results, as labelled records:
> N#Cc1ccc(OS(=O)(=O)c2ccc(-c3ccon3)s2)cc1
  FGF22 binding: i; Ecoli growth: 0.633; HNF4A DNA FP: 1.0; rRNA inh HTS: -34.6; rRNA inh HTS OD600: -33.0; rRNA inh HTS RFP: -7.7; UCH37 DUB inh: 5.1; ALR H2O2 inh: -6.8; Beta2AR agonist: 2.7
> Cc1ccccc1-c1ccc2c(c1)O[C@H](CN(C)C(=O)C1CC1)[C@@H](C)CN([C@@H](C)CO)S2(=O)=O
  FGF22 binding: i; Ecoli growth: .; HNF4A DNA FP: -0.7; rRNA inh HTS: -2.2&-8.4; rRNA inh HTS OD600: -30.8&-24.9; rRNA inh HTS RFP: 4.7&4.5; UCH37 DUB inh: .; ALR H2O2 inh: .; Beta2AR agonist: .

The list is partial, so the mix of outcomes need not match the whole.
